NPYLR7 agonist: agonists of mosquito NPYLR7 receptor, primary screen, cell-based, Aedes aegypti, calcium fluorescence, mosquito biting behavior | HEK293T NPYLR7/Galpha15, GCaMP6s calcium fluorescence | activation, % at 10 µM | hit rate 0.15% among 270,000 | AID 1259423, 2018; in the data active = activation above about 40%;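 also: 0% = vehicle and 100% = reference agonist at the receptor; some compounds past the cut are filed as inactive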
NPYLR7 agonist max-min: recorded beside NPYLR7 agonist, whose call it bears; activation, %; measured here: Max-Min RFU normalised activation; some inactives read as strong as hits;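 span of the calcium signal over five minutes; 0% = vehicle and 100% = native peptide agonist; compound fluorescence can raise it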
* hit, by the source's call.

SMILES,NPYLR7 agonist,NPYLR7 agonist max-min
CC(C)(C)c1nc(Cn2cnc3ncc(Br)cc32)no1,7,4
CSc1ccc(-c2nc(CN3CCCNCC3)c(C)o2)cc1,-1,-2
CCOc1ccc(C(=O)Nc2nccs2)cc1[N+](=O)[O-],9,10
Fc1ccc(Cn2ncc3c2CN(c2ncnc4ccsc24)C3)cc1,0,-5
N#CCCNC(=O)CN1CCCC(CN2CCN(c3ccccn3)CC2)C1 (stereo unspecified),-8,-9
O=c1[nH]c2ccccc2n1C1CCN(S(=O)(=O)c2cccc(F)c2)CC1,0,-1
CCCn1ccnc1CN1CCc2[nH]nc(-c3ccc4c(c3)OCO4)c2C1,-4,-7
CC(C)(C)c1ccc(CSc2nnc(NC(=O)CSc3ccccc3)s2)cc1,4,7
CC(C)Cc1nc(CCc2c[nH]c3ccccc23)n[nH]1,0,0
CC(c1ccccc1)n1nnnc1N1CCC2(CC1)C(=O)Nc1ccccc12 (stereo unspecified),6,5
COc1cc(NC(=O)c2ccc(Cl)s2)cc(OC)c1,-9,-8
CC(C)(C)c1noc(CNc2ccc(F)c(F)c2)n1,-2,-4

Compound profiles (already shown). Screens in order: NPYLR7 agonist	NPYLR7 agonist max-min
`CC(C)(C)c1ccc(CSc2nnc(NC(=O)CSc3ccccc3)s2)cc1` as listed: 4	7
`CSc1ccc(-c2nc(CN3CCCNCC3)c(C)o2)cc1` as listed: -1	-2
`CC(C)(C)c1noc(CNc2ccc(F)c(F)c2)n1` as listed: -2	-4
`CCCn1ccnc1CN1CCc2[nH]nc(-c3ccc4c(c3)OCO4)c2C1` as listed: -4	-7
`COc1cc(NC(=O)c2ccc(Cl)s2)cc(OC)c1` as listed: -9	-8

(next part)
SMILES,NPYLR7 agonist,NPYLR7 agonist max-min
CCOc1ccccc1N1C(=O)CSC1c1ccc(NC(=O)c2ccc(C(F)(F)F)cc2)cc1 (stereo unspecified),6,13
COc1cc(-c2nc3ccccn3c2N=Cc2cc3c(cc2[N+](=O)[O-])OCO3)ccc1O,-4,-13
NC(=O)c1csc(C(=O)N2CCN(C3CCC3)CC2)c1,8,3
CC(=O)C(=Nc1ccccc1Cl)NNc1cccc(Cl)c1,2,-1
O=C(Nc1cccs1)N1CCCC(c2nnc(Cc3ccc(F)cc3)o2)C1 (stereo unspecified),-1,5
COc1cc(S(=O)(=O)N2CCc3ccccc3C2)c(OC)cc1Cl,-5,-4
Cc1sc2nc(CCN)nc(NCC3OCCc4ccccc43)c2c1C (stereo unspecified),18,8
Brc1ccc(-c2csc3nc4nc5ccccc5c-4nn23)cc1,7,46
COc1nn(C)cc1C(=O)Nc1ccc(S(N)(=O)=O)cc1,7,4
CCNC(=O)[C@@H]1C[C@H](N)CN1C(=O)CC1=C(c2cccs2)CCC1=O,5,1
CCN(CC)c1onc(-c2ccccc2)c1CN(CC1CCCO1)C(=O)c1ccco1 (stereo unspecified),3,7
CC(=O)Nc1ccc(C(=O)Nc2nnc(C(C)C)s2)cc1,2,8
CC(=Nn1cnc2sc3c(c2c1=O)CCCC3)N(C)C,-1,-3
CS(=O)(=O)c1ccc(NC(=O)CCl)cc1,32,17
CN1CC23C=CC(O2)C(C(=O)N(Cc2cccc(C(F)(F)F)c2)Cc2ccco2)C3C1=O (stereo unspecified),1,4
C=CCCC(O)CN(CCOC)Cc1ccsc1 (stereo unspecified),20,21
Cc1cc(C)c(S(=O)(=O)N2CCCN(c3nc4ccccc4nc3-c3ccccc3)CC2)c(C)c1,4,-1
CC(=O)c1c(C)[nH]c(C(=O)C(C)Nc2ccc3c(c2)OC(F)(F)O3)c1C (stereo unspecified),-1,-3
CC(=O)c1ccc(N2CCN(C(=O)CNC(=O)NCc3ccc(C)cc3)CC2)cc1,-1,-4
O=C(c1sc2ccccc2c1Cl)N1CCN(c2c(-c3ccccc3)cnc3ncnn23)CC1,19,15
COc1cccc(S(=O)(=O)N2CCN(c3nc4nccc(-c5cccc(C)c5)n4n3)CC2)c1,5,4
COc1cc(OC)c(OC)cc1C=C1C(=O)N(C)C(=O)N(C)C1=O,-12,-16
COc1ccc(OCCN2CCC(C(=O)NC(c3ccc(Cl)cc3)c3ccccn3)CC2)cc1 (stereo unspecified),5,7
CCc1cnc(C)nc1N1CCN(S(=O)(=O)c2ccccc2)CC1,22,11
COc1cc(OC)c(OC)cc1/C=C/C(=O)N(C)C1(C#N)CCC1,6,2
COCCn1c(N2CCCC(C)C2)nc2c1c(=O)n(C)c(=O)n2C (stereo unspecified),3,3
O=C(c1ccc(Cl)cc1)C1CCCN(C(=O)CCn2cnc3ccccc3c2=O)C1 (stereo unspecified),20,12
COc1ccc(/C=N\n2nnnc2N)cc1,-3,-3
CC(=O)Nc1ccc(S(=O)(=O)Oc2cccc(CN(C(=O)C(C)C)C(C)C)c2)cc1,-3,2
Cc1cc(C)c(S(N)(=O)=O)cc1C(=O)NCCC1CCCC1,15,13
CN(c1ccccc1)c1nc(-n2ccnc2)nc(-n2ccnc2)n1,-1,-3
Cc1cccc(-c2cnc(C)nc2C2CCCN(C(=O)/C=C/c3cccnc3)C2)c1 (stereo unspecified),21,10
Cc1ccc(F)cc1S(=O)(=O)Nc1cccc(CN2CCCC2=O)c1,4,2
CCN(CC)S(=O)(=O)c1ccc(Cl)c(C(=O)Nc2cc(Cl)ccc2N2CCCC2)c1,6,4
Fc1ccccc1-c1cnnc(NCC(c2ccncc2)N2CCOCC2)n1 (stereo unspecified),5,4
O=C(c1cc2sccc2[nH]1)N1CC(c2cccnc2)C1,36,19
Cc1ccc(O)c(C(=O)N2CCC(CNC(=O)OC(C)(C)C)C2)c1 (stereo unspecified),-1,-4
Nc1nc(SCC(=O)N2CCCc3ccccc32)[nH]c(=O)c1NC(=O)c1ccccc1,-2,-8
CC(CNC(=O)Cc1ccc([N+](=O)[O-])cc1)NC(=O)Cc1ccc([N+](=O)[O-])cc1 (stereo unspecified),5,5
CN(C)/C=C1\CCCCC1=C(C#N)C#N,3,1
COc1ccc(CN2CCCN(C(=O)Nc3ccc4nc(C)sc4c3)CC2)cc1,8,4
Cc1ccc(OCC2CN(C(=O)COc3ccccc3C)CCO2)cc1 (stereo unspecified),-6,-8
O=c1[nH]nc2ccc(N3CCC(c4ccccc4)CC3)nn12,8,4
Cc1ccc(F)c(C(=O)N2CCN(C3c4ccccc4CCc4ccccc43)CC2)c1F,2,8
CCC(COC)NC(=O)CC(C)NC(=O)C1CCCC1 (stereo unspecified),6,7
Nc1cc(-c2ccc(Cl)cc2)nn1-c1ccc(C(=O)NCCCCc2ccccc2)cc1,-1,-9
Nc1nc2c(ncn2S(=O)(=O)c2ccc(Cl)cc2)c(=O)[nH]1,2,1
CCCCn1c(CNC(=O)C23CC4CC(CC(C4)C2)C3)nnc1SC(C)C(=O)OCC (stereo unspecified),-4,-7
COc1cc(CN(CCC(C)C)CC(C)(C)O)cc(OC)c1,2,8
COC(=O)c1cc(CN(C)Cc2cccc3ncccc23)cs1,0,-3
CCCn1c(S(=O)(=O)Cc2ccc(C(C)(C)C)cc2)n[nH]c1=O,-5,-3
COc1ccc(C(=O)NCc2nnc(SCc3ccccc3C)n2-c2cc(Cl)ccc2Cl)cc1,27,24
CC(C)=CCC/C(C)=C/CCC(C)NCCN1CCNCC1 (stereo unspecified),11,1
O=C1CCC(C(=O)N2CCC3(CCCN(CCCc4ccccc4)C3)C2)=NN1 (stereo unspecified),10,9
CCOC(=O)CC1COCCN1Cc1nc(-c2ccc(C(=O)OC)cc2)oc1C (stereo unspecified),10,9
Cc1nc(C)c(C(=O)NC(C)c2cnn(-c3ccccc3C)c2C)s1 (stereo unspecified),2,-2
CN(C)CCCSC(=N)N,3,-5
O=S(=O)(N1CCCC1)N1CCN(c2cccc(Cl)n2)CC1,12,6
OCC1(CCc2ccccc2)CCN(Cc2ccccc2Cl)CC1,-2,-4
CC(C)(C)OC(=O)CN1C(=O)C(Sc2n[nH]c(-c3ccncc3)n2)CCc2ccccc21 (stereo unspecified),-4,-5

Continuation:
SMILES,NPYLR7 agonist,NPYLR7 agonist max-min
O=C(CSc1ccc(-c2cccnc2)nn1)N1CCN(c2ccccc2)CC1,21,8
CC(=O)NC1C(Oc2ccc3ccccc3c2)OC(COC(C)=O)C(OC(C)=O)C1OC(C)=O (stereo unspecified),-4,-5
CCCCC1CCCN1Cc1ccc(CO)o1 (stereo unspecified),11,10
Cc1cc(-c2cc(F)ccc2C)nc(N)n1,1,-3
O=C(CNC(=O)c1ccccc1O)N=Nc1c(O)n(Cc2ccc3c(c2)OCO3)c2ccccc12,-1,-2
O=c1c[n+]([O-])c2ccccc2n1OCc1ccccn1,16,-1
Cc1ccc(C=Nn2cnc3sc4c(c3c2=O)CCCC4)o1,-6,-9
Cc1nn(C)cc1C(C)NC(=O)c1ccc(OC2CCN(CCc3ccccc3)CC2)cc1 (stereo unspecified),-1,-3
O=C(CCc1nnc(Cc2c[nH]c3ccccc23)o1)N1CC=C(c2ccc(F)cc2)CC1,10,7
CCOC(=O)c1nc2ccccc2nc1N1CCN(C(=O)c2c(F)cccc2F)CC1,4,0
CC(C)NC(=O)c1ccnc(-c2cccnc2)c1,6,1
C=CCN(Cc1csc(COc2cccc(C)c2)n1)C(=O)C1CC1,-1,-8
COc1cccc(-c2cc(C(=O)N3CCN(c4ccccc4Cl)CC3)n3nc(C(C)(C)C)cc3n2)c1,1,8
CC1C2=C(CC(C)(C)CC2=O)N=C(SCC(N)=O)C1C#N (stereo unspecified),3,28
CCCNC(=O)CCC1NC(=O)N(CC2(c3ccc(OC)cc3)CCOCC2)C1=O (stereo unspecified),-3,-9
Cc1ccc(-n2nnnc2CN2CCN(C(=O)c3cc(C)on3)CC2)cc1,-1,-2
CCN(C(=O)c1cccn(Cc2ccccc2F)c1=O)c1ccccc1,15,4
Cc1ccc(-n2cnnn2)cc1NCC(=O)Nc1ccc(F)c(F)c1,-1,-3
O=C(CSc1nc2sccc2c(=O)[nH]1)Nc1ccc2c(c1)CCC2,6,3
Cc1cc(NC(=O)C(C)OC(=O)c2c(C)cccc2[N+](=O)[O-])no1 (stereo unspecified),-1,19
CCc1nc(CC#N)nc(N2CCN(C(=O)c3ccc(F)cc3)CC2)c1Cc1cccc(C)c1,5,14
COc1cccc(NC(=O)C2CCCCC2C(=O)N2CCc3c([nH]c4ccccc34)C2)c1 (stereo unspecified),-9,-16
CN1CCC2(CC1)CN(C(=O)c1ccc(S(N)(=O)=O)cc1)CCN2C,31,17
O=C(COC(=O)Cn1cc(C(F)(F)F)ccc1=O)NC1CCS(=O)(=O)C1 (stereo unspecified),-4,-6
O=C(c1nn2cccnc2c1Cl)N(Cc1ccccc1)c1ccccc1,-10,-17
CCC(C(=O)N1CCN(C(C(=O)NCCc2ccccn2)C2CCCC2)CC1)c1ccccc1 (stereo unspecified),-4,0
CC(C)(C)NC(=O)N1CCN(Cc2nnnn2-c2cccc(F)c2)CC1,3,2
COCc1[nH]n2c(=O)cc(Cc3ccccc3)nc2c1-c1ccccc1,-4,-4
COc1ncc(-c2nccn2-c2ccc(-c3ccn[nH]3)cc2)cn1,2,-3
COC(=O)C1C(=O)c2c([nH]c(C(=O)OC3CCCCCCC3)c2C)CC1C (stereo unspecified),13,7
COc1ccc(N2CCN(c3cncc(C)n3)CC2)cc1,0,0
CCN1CCN(S(=O)(=O)c2ccc(OC)c(N3CCN(C(=O)c4c(F)cccc4Cl)CC3)c2)CC1,6,-2
OCC1OC(n2cnc3c(Cl)ncnc32)C(O)C1O (stereo unspecified),-3,-3
CCc1nc(CN2CCC(CCC(=O)N(C)Cc3ccccc3)CC2)c(C)[nH]1,17,15
CCN(CC)C(=O)c1cc(NC(=O)Nc2cc(C(F)(F)F)cc(C(F)(F)F)c2)ccc1N1CCCC1,-9,-14
O=C(c1ccccc1-c1ncn[nH]1)N1CCCC(N2CCC(CO)CC2)C1 (stereo unspecified),0,-3

Reprinted from the part before: 2 compounds; new compounds follow.
SMILES,NPYLR7 agonist,NPYLR7 agonist max-min
CCN(CC)C(=O)c1cc(NC(=O)Nc2cc(C(F)(F)F)cc(C(F)(F)F)c2)ccc1N1CCCC1,-9,-14
O=C(c1ccccc1-c1ncn[nH]1)N1CCCC(N2CCC(CO)CC2)C1 (stereo unspecified),0,-3
O=C1c2ccc([N+](=O)[O-])cc2C(=O)N1CNc1ccc(Cl)cc1,0,-6
O=C(COc1coc(CN2CCc3ccccc3C2)cc1=O)NC1CCCCC1,6,5
Cc1ccccc1CSc1ccc2nnc(-c3ccccn3)n2n1,-1,-4
CCOc1ccc(-n2ccnc(SCC(=O)Nc3ccc(OC)cc3)c2=O)cc1,1,8
CCOCCCn1c(SCc2ccccc2C)nc2cc(C(=O)OCC)ccc21,-5,-15
COc1ccc(NC(=O)NCCn2nc(-c3cccnc3)ccc2=O)cc1OC,-3,-6
CCN(C1CCCCC1)S(=O)(=O)c1cc(C)c(C)c(C)c1C,7,8
CC(C)Oc1ccc(CNC(=O)N2CCC(N3CC=CC3)C2)cc1F (stereo unspecified),-1,-14
Cc1ccc(NC(=O)C2CSCN2C(=O)c2ccoc2)c(C)c1 (stereo unspecified),7,1
Cc1cc(C)cc(OCCn2cnc3sccc3c2=O)c1,-8,-12

Some of the compounds tested; the hit share may differ from the screen's.
